From PubChem BioAssay
TNAP activators – human TNAP enzyme activators, primary screen, biochemical, luminescent, no phosphate acceptor, uHTS (AID 1001); Alkaline phosphatase, tissue-nonspecific isozyme (Homo sapiens); purified TNAP, luminescent activation assay, no phosphate acceptor; higher activation fold means a stronger effect; activation fold at 20 µM; hits with a dose series show EC50 in µM; hit rate 0.03% among 200,000; in the data active = activation fold from about 3, or a potency from the dose series; inactive = the rest, 99 in 100 with activation fold below about 1.6; also: many of its hits are not listed in these tables
Insulin prom up – insulin promoter activators in MIN6 cells, imaging, high-content screening, mouse beta cells. MIN6 insulin promoter-GFP reporter; stronger effect = higher value. z-score at 5 µM. hit rate 0.3% among 190,000;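 active = z-score above 3 at 5 µM with at least 500 cells counted in the well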
Autophagy HCS – autophagy modulators in MEF cells, primary screen, imaging, high-content, MEF GFP-LC3; hit rate 0.98% among 190,000; AID 463193, 2010; MEF GFP-LC3 puncta imaging; test concentration mostly 10 µM; calls only at 10 µM (by protocol);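 active = percentage of spot-positive cells more than 3 SD above its plate mean, without a fluorescence outlier flag or 80% toxicity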;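 also: spot-positive cell cutoff set from DMSO-treated cells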
T cell modulator – modulators of CD8 T cell-vesicle binding, primary screen, mouse 2C CD8+ T cells, flow cytometry. 2C CD8+ T cell-vesicle binding; stronger effect = lower value. calls only at 7 µM. hit rate 0.068% among 330,000;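 active = response, share of CD8 T cells binding vesicles, and their 90th percentile fluorescence all below set limits, cut at about 80% in these data, passing the limit was not always enough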
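System: murine 2C transgenic CD8+ T lymphocytes; also added: QL9-loaded Drosophila micro-vesicles; times: binding 1.5 h at 37 °C; measured by: flow cytometry, PE anti-B7-1 (FL2) versus Alexa647 anti-CD8 (FL8), PFA-fixed; control set: Peptide-free naked vesicles (low) and QL9 vesicles with 0.7% DMSO vehicle (high)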
MT stabilizer – microtubule stabilizers in HeLa cells, primary screen, imaging, high-content imaging; HeLa tubulin immunostaining HCS, 24 h; share of cells brighter than vehicle mean+2SD; % tubulin-high responders, % at 10 µM; hit rate 0.83% among 200,000;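 active = plate Z-score above 3 for both tubulin-high and condensed-nucleus cell shares, with cell loss under 80%, at 10 µM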;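 also: anti alpha tubulin signal scored within the nucleus-defined area of each cell; some results filed as inactive read as strong as hits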
Hep lipid drop – inhibitors of hepatocyte lipid droplet formation, primary screen, imaging, high-throughput imaging, BODIPY stain | AML12 mouse hepatocytes, oleate lipid droplets | inhibition, % at 6.5 µM | hit rate 0.4% among 240,000;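 active = lipid droplet intensity inhibited by at least 50%, with more than 500 cells counted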
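Technique: fluorescence imaging, 20x objective, two fields per well / Assay system: AML12 hepatocytes (mouse) / Measure: % inhibition of lipid droplet signal / Doses: 6.5 µM single-point dosing / Incubation: overnight exposure / Reagent: 100 µM oleic acid challenge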
Insulin prom up cell count – also measured in Insulin prom up; calls as there; cell count; measured here: cytotoxicity, nuclei count;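 total cells summed across four imaged fields per well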
Hep lipid drop cells 6.5 µM – recorded beside Hep lipid drop, whose call it bears; cell count; measured here: cell count, cytotoxicity flag;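 cells counted across two imaged fields per well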
T cell modulator vesicle-bound % – second read-out of T cell modulator, no call of its own (marks repeat the call); double positive events, %; measured here: CD8+ vesicle-bound cell fraction;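 binding gate set so that unloaded-vesicle control wells show 10% double positive cells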
MT stabilizer Hoechst-high % – second read-out of MT stabilizer, no call of its own (marks repeat the call); % Hoechst-high responders; measured here: nuclear condensation Hoechst responders;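 share of cells brighter than vehicle mean plus two SD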
MT stabilizer cytotoxicity % – second read-out of MT stabilizer, no call of its own (marks repeat the call); toxicity, %; measured here: cytotoxicity by cell density;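 0% = mean cell density of plate MIN control wells and 100% = no cells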
Autophagy HCS cell loss 18 h – recorded beside Autophagy HCS, whose call it bears; toxicity, %; measured here: cell loss, nuclei count;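 cell loss after 18 h compound exposure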
* = called active by the depositor; i = inactive; · = not tested or not shown. The list is partial; rates above refer to the full screens.

SMILES | TNAP activators | Insulin prom up | Insulin prom up cell count | Autophagy HCS | Autophagy HCS cell loss 18 h | T cell modulator | T cell modulator vesicle-bound % | MT stabilizer | MT stabilizer Hoechst-high % | MT stabilizer cytotoxicity % | Hep lipid drop | others
CCOc1c2ccc(C(=O)NCc3ccc4c(c3)OCO4)cc2nn1CCOC | 1.1 | 0.78 | 1560 | i | -29 | i | 34 | 2.0 | 1.7 | 1.5 | ·
O=C(CSc1nc2ccccc2c(=O)n1-c1ccc(Cl)cc1)c1ccco1 | 1.1 | -0.25 | 1647 | i | 18 | i | 48 | 2.5 | 2.5 | 6.7 | ·
CCN(C(=O)CSc1nnc(Cc2cccc3ccccc23)n1N)C1CCS(=O)(=O)C1 (stereo not given) | 1.1 | 0.75 | 1447 | i | -31 | i | 21 | 2.7 | 2.3 | 8.3 | ·
Nc1ccc(Sc2ccccc2CC(=O)O)cc1 | 1 | -0.35 | 1624 | i | 1 | i | 16 | 4.1 | 1.5 | 7.4 | ·
C/C(=C1/SC(N2CCCC2)=NC1=O)c1ccc(Br)cc1 | 1.1 | 1.1 | 1509 | i | 4 | i | 48 | 3.1 | 3.3 | 5.4 | ·
CCSc1ncccc1-c1nc2ccccc2[nH]1 | 1.1 | -0.3 | 1806 | i | -2 | i | 11 | 2.9 | 2.4 | 7.0 | 4 | Hep lipid drop cells 6.5 µM=558
O=c1ncn(-c2ccccc2F)c2ncccc12 | 1 | -0.32 | 1695 | i | 7 | i | 40 | 2.1 | 1.1 | 6.4 | ·
O=C(c1ccccc1)c1c[nH]c(C(=O)NCCCn2ccnc2)c1 | 1 | 0.05 | 1696 | i | -28 | i | 21 | 1.5 | 1.0 | 1.5 | ·
Cc1c(C(=O)Nc2ccc(OC(F)(F)F)cc2)sc2nc3n(c(=O)c12)CCC3 | 1.1 | -0.12 | 1442 | i | 4 | i | 56 | 0.8 | 1.9 | 8.9 | ·
CC(=O)c1ccc(NC(=O)Cn2nc(C)cc2C)cc1 | 1.1 | -0.49 | 1677 | i | 13 | i | 15 | 2.3 | 2.6 | 11 | ·
O=C(c1ccc2nc(-c3ccco3)c(-c3ccco3)nc2c1)N1CCN(c2ncccn2)CC1 | 1.1 | 0.24 | 1468 | i | -5 | i | 11 | 3.5 | 1.2 | 5.4 | ·
COc1ccccc1/C=N/NC(=O)CC(=O)Nc1ccc(Cl)c(Cl)c1 | 1.1 | 0.09 | 1453 | i | 14 | i | 37 | 1.8 | 1.0 | 7.9 | ·
Clc1ccc2ncc(-c3nnnn3-c3ccccc3)c(-c3ccccc3)c2c1 | 0.9 | 0.14 | 1686 | i | -13 | i | 24 | 6.9 | 2.7 | 0.6 | ·
CCn1ncc(C(=O)Nc2cc(C)on2)c1C | 1.1 | -0.06 | 1653 | i | -22 | · | · | i | · | 100 | ·
COc1ccc(-c2c(C(C)=O)c(C)nc3sc4c(c23)NC(c2ccccc2)NC4=O)cc1 (stereo not given) | 1 | -0.33 | 1712 | i | -20 | i | 52 | 2.4 | 2.1 | 11 | ·
CCn1c(=O)cc(SCC(=O)NCc2ccc3c(c2)OCO3)c2ccccc21 | 1.2 | -0.1 | 1282 | i | 0 | i | 27 | 3.5 | 3.8 | 9.5 | ·
COc1cc(/C=C(/C#N)c2nc3ccccc3[nH]2)ccc1OCc1ccc(C(=O)O)o1 | 1.1 | 0.29 | 1450 | i | 5 | i | 33 | 2.1 | 1.4 | 4.5 | ·
COc1ccc(Cn2c(SCc3ccccc3C)nc3cc(OC)c(OC)cc3c2=N)cc1 | 1.1 | -1.5 | 894 | i | 15 | i | 47 | 35 | 33 | 93 | ·
CCCS(=O)(=O)N1CCCC(C(=O)NCCCN(C)Cc2ccccc2)C1 (stereo not given) | 1.1 | 0.32 | 1246 | i | -9 | i | 5 | 1.7 | 2.0 | 7.0 | ·
CCOc1cc(C2C(C(=O)OC(C)C)=C(C)N=C3SCCC(=O)N32)ccc1OC(C)=O (stereo not given) | 1.1 | -0.08 | 1666 | i | -4 | i | 36 | 3.3 | 2.4 | 4.1 | 2 | Hep lipid drop cells 6.5 µM=673

Among those listed so far, these have a thiophene ring, fused or not.
SMILES | TNAP activators | Insulin prom up | Insulin prom up cell count | Autophagy HCS | Autophagy HCS cell loss 18 h | T cell modulator | T cell modulator vesicle-bound % | MT stabilizer | MT stabilizer Hoechst-high % | MT stabilizer cytotoxicity % | Hep lipid drop | others
Cc1c(C(=O)Nc2ccc(OC(F)(F)F)cc2)sc2nc3n(c(=O)c12)CCC3 | 1.1 | -0.12 | 1442 | i | 4 | i | 56 | 0.8 | 1.9 | 8.9 | ·
COc1ccc(-c2c(C(C)=O)c(C)nc3sc4c(c23)NC(c2ccccc2)NC4=O)cc1 (stereo not given) | 1 | -0.33 | 1712 | i | -20 | i | 52 | 2.4 | 2.1 | 11 | ·

4 records picked at random from those above, as already listed:
SMILES | TNAP activators | Insulin prom up | Insulin prom up cell count | Autophagy HCS | Autophagy HCS cell loss 18 h | T cell modulator | T cell modulator vesicle-bound % | MT stabilizer | MT stabilizer Hoechst-high % | MT stabilizer cytotoxicity % | Hep lipid drop | others
C/C(=C1/SC(N2CCCC2)=NC1=O)c1ccc(Br)cc1 | 1.1 | 1.1 | 1509 | i | 4 | i | 48 | 3.1 | 3.3 | 5.4 | ·
O=C(c1ccccc1)c1c[nH]c(C(=O)NCCCn2ccnc2)c1 | 1 | 0.05 | 1696 | i | -28 | i | 21 | 1.5 | 1.0 | 1.5 | ·
Cc1c(C(=O)Nc2ccc(OC(F)(F)F)cc2)sc2nc3n(c(=O)c12)CCC3 | 1.1 | -0.12 | 1442 | i | 4 | i | 56 | 0.8 | 1.9 | 8.9 | ·
O=C(CSc1nc2ccccc2c(=O)n1-c1ccc(Cl)cc1)c1ccco1 | 1.1 | -0.25 | 1647 | i | 18 | i | 48 | 2.5 | 2.5 | 6.7 | ·

(further entries)
SMILES | TNAP activators | Insulin prom up | Insulin prom up cell count | Autophagy HCS | Autophagy HCS cell loss 18 h | T cell modulator | T cell modulator vesicle-bound % | MT stabilizer | MT stabilizer Hoechst-high % | MT stabilizer cytotoxicity % | Hep lipid drop | others
CCOC(=O)N1CCN(c2cc(N)c([N+](=O)[O-])cc2F)CC1 | 0.9 | -0.3 | 1602 | i | 26 | i | 13 | 1.7 | 1.4 | 0.2 | ·
CCOC(=O)Cc1csc(NC(=S)NC(=O)c2ccc(Cl)cc2)n1 | 0.8 | -0.46 | 1558 | i | -16 | i | 16 | 3.0 | 1.8 | 6.1 | ·
CCCCNC(=O)CSc1nc2ccccc2c(=O)n1CCNC(C)=O | 1 | -1.4 | 1579 | i | -5 | i | 20 | 2.3 | 2.1 | 6.0 | ·
COc1ccc(N2CCN(c3oc(Cc4cccc5ccccc45)nc3C#N)CC2)cc1 | 1 | 0.01 | 784 | i | 0 | i | 62 | 2.1 | 1.4 | 2.4 | ·
NCCCCCc1nnc(SCc2ccc(Cl)c(Cl)c2)o1 | 1 | -0.47 | 1488 | i | 1 | i | 52 | 2.8 | 1.7 | 5.7 | ·
O=[N+]([O-])c1ccc(N2CCCCCC2)c(S(=O)(=O)N2CCCCC2)c1 | 1.1 | -0.98 | 1505 | i | 0 | i | 39 | 1.5 | 1.9 | 7.0 | ·
Nc1cc(Cl)ccc1Oc1ccc(Cl)cc1 | 1.1 | 0.92 | 1533 | i | -4 | i | 50 | 2.7 | 2.0 | 4.4 | ·
CCNC(=O)CN1c2cccc3cccc(c23)S1(=O)=O | 1 | -0.27 | 1560 | i | -26 | i | 51 | 3.2 | 2.0 | 7.1 | ·
